NPYLR7 ag: mosquito NPYLR7 agonism; 0.15% of 270,000 active; activation, % at 10 µM; HEK293T NPYLR7/Galpha15, GCaMP6s calcium fluorescence; in the data active = activation above about 40%;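 note: 0% = vehicle and 100% = reference agonist at the receptor; some compounds past the cut are filed as inactive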
NPYLR7 ag max-min: recorded beside NPYLR7 ag, whose call it bears; activation, %; measured here: Max-Min RFU normalised activation; some inactives read as strong as hits;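 span of the calcium signal over five minutes; 0% = vehicle and 100% = native peptide agonist; compound fluorescence can raise it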
Starred values were filed as active, the others as inactive; & = joins results of further samples. Only part of the results is shown; count on the stated rates, not on these rows.

Sample of the layout (25 entries):
canonical_smiles | NPYLR7 ag max-min | NPYLR7 ag
O=C(CN1CSCC1=O)Nc1nn2cnnc2s1 | 1 | 5
CC1(C)CC2CC(C)(CN2C(=O)COC(=O)c2ncc(Cl)c(Cl)c2Cl)C1 (stereo not drawn) | 11 | 4
CC1CCCN(c2nc(N)c([N+](=O)[O-])c(N3CCCC3)n2)C1 (stereo not drawn) | -2 | -1
CC1CN(CC(=O)N2CCN(Cc3nccn3C)CC2)Cc2cc(Cl)ccc2O1 (stereo not drawn) | 10 | 21
Cc1ccccc1CSc1nnc(CNC(=O)C2CCC2)n1-c1ccc(Cl)cc1Cl | 26 | 28
COc1ccc(-c2nn(-c3ccccc3)cc2C=C2C(=O)NC(=O)NC2=O)cc1OC | 6 | 21
CCn1nnnc1SCc1cccc(C)c1 | 13 | 24
O=C(CCc1nc(-c2ccc(Cl)cc2)no1)NCc1ccco1 | 7 | 7
OC1(/C=C/C2(O)CCCCC2)CCCCC1 | -20 | -13
Cc1ccc(-c2onc3c2CCCC3)cc1NC(=O)C(C)Cl (stereo not drawn) | 4 | 4
CCC(CC)n1nc(C)cc1NC(=O)C1=CC(=O)CC(C)(C)O1 | -1 | 0
O=C(O)CN1C(=O)/C(=C\c2ccc(OCc3ccccc3Cl)cc2)SC1=S | -4 | -4
CCOC(=O)CSc1nnc(C(C)C)c2cnn(-c3ccc(F)cc3)c12 | -14 | -8
Nc1ncnc2c1nc(Sc1ccc(Cl)cc1)n2C1OC2COP(=O)(O)O[C@@H]2[C@@H]1O (stereo partly drawn) | -9 | 9
Cc1oc(-c2ccc(NC(=O)Cc3ccccc3)cc2)nc1CNC(=O)c1cc2ccccc2n1C | 11 | 29
CCC(C)S(=O)(=O)Nc1cccc(S(C)=O)c1 (stereo not drawn) | -4 | -1
CCCCCCCSc1nc(C)cc(=O)[nH]1 | -1 | 1
COCc1ccc(CN(C)Cc2nc(-c3ccccc3NS(C)(=O)=O)oc2C)o1 | 8 | 18
CC1(C(=O)NCc2ccccc2Br)CCN1C(=O)C/C=C/c1ccccc1 (stereo not drawn) | 2 | -4
COc1ccc2nc(-n3nc(C)cc3NC(=O)c3cc(C)on3)sc2c1 | -11 | -5
COc1cccc(COC2CN(Cc3ccccn3)C(=O)CN(C(=O)c3ccc(C)s3)C2)c1 (stereo not drawn) | 1 | 12
COc1ccc(C)cc1-c1noc([C@H]2CCCO2)n1 | 2 | 5
CCn1nnc2c(NC3CCCCCCCCCCC3)ncnc21 | 12 | 16
O=C1CC(N(Cc2ccc3c(c2)OCO3)C(=S)Nc2ccccc2)C(=O)N1c1ccc(F)cc1 (stereo not drawn) | -2 | -1
CCC(CC)C(=O)Nc1ccc(-c2cccc(-c3cc(OC)ccc3OC)n2)cc1 | 13 | 12

All compounds of this part, from the first entry:
canonical_smiles | NPYLR7 ag max-min | NPYLR7 ag
O=C(CN1CSCC1=O)Nc1nn2cnnc2s1 | 1 | 5
CC1(C)CC2CC(C)(CN2C(=O)COC(=O)c2ncc(Cl)c(Cl)c2Cl)C1 (stereo not drawn) | 11 | 4
CC1CCCN(c2nc(N)c([N+](=O)[O-])c(N3CCCC3)n2)C1 (stereo not drawn) | -2 | -1
CC1CN(CC(=O)N2CCN(Cc3nccn3C)CC2)Cc2cc(Cl)ccc2O1 (stereo not drawn) | 10 | 21
Cc1ccccc1CSc1nnc(CNC(=O)C2CCC2)n1-c1ccc(Cl)cc1Cl | 26 | 28
COc1ccc(-c2nn(-c3ccccc3)cc2C=C2C(=O)NC(=O)NC2=O)cc1OC | 6 | 21
CCn1nnnc1SCc1cccc(C)c1 | 13 | 24
O=C(CCc1nc(-c2ccc(Cl)cc2)no1)NCc1ccco1 | 7 | 7
OC1(/C=C/C2(O)CCCCC2)CCCCC1 | -20 | -13
Cc1ccc(-c2onc3c2CCCC3)cc1NC(=O)C(C)Cl (stereo not drawn) | 4 | 4
CCC(CC)n1nc(C)cc1NC(=O)C1=CC(=O)CC(C)(C)O1 | -1 | 0
O=C(O)CN1C(=O)/C(=C\c2ccc(OCc3ccccc3Cl)cc2)SC1=S | -4 | -4
CCOC(=O)CSc1nnc(C(C)C)c2cnn(-c3ccc(F)cc3)c12 | -14 | -8
Nc1ncnc2c1nc(Sc1ccc(Cl)cc1)n2C1OC2COP(=O)(O)O[C@@H]2[C@@H]1O (stereo partly drawn) | -9 | 9
Cc1oc(-c2ccc(NC(=O)Cc3ccccc3)cc2)nc1CNC(=O)c1cc2ccccc2n1C | 11 | 29

For convenience, 3 of the compounds above.
canonical_smiles | NPYLR7 ag max-min | NPYLR7 ag
CCOC(=O)CSc1nnc(C(C)C)c2cnn(-c3ccc(F)cc3)c12 | -14 | -8
Nc1ncnc2c1nc(Sc1ccc(Cl)cc1)n2C1OC2COP(=O)(O)O[C@@H]2[C@@H]1O (stereo partly drawn) | -9 | 9
Cc1oc(-c2ccc(NC(=O)Cc3ccccc3)cc2)nc1CNC(=O)c1cc2ccccc2n1C | 11 | 29

Carrying on:
canonical_smiles | NPYLR7 ag max-min | NPYLR7 ag
CCC(C)S(=O)(=O)Nc1cccc(S(C)=O)c1 (stereo not drawn) | -4 | -1
CCCCCCCSc1nc(C)cc(=O)[nH]1 | -1 | 1
COCc1ccc(CN(C)Cc2nc(-c3ccccc3NS(C)(=O)=O)oc2C)o1 | 8 | 18
CC1(C(=O)NCc2ccccc2Br)CCN1C(=O)C/C=C/c1ccccc1 (stereo not drawn) | 2 | -4
COc1ccc2nc(-n3nc(C)cc3NC(=O)c3cc(C)on3)sc2c1 | -11 | -5
COc1cccc(COC2CN(Cc3ccccn3)C(=O)CN(C(=O)c3ccc(C)s3)C2)c1 (stereo not drawn) | 1 | 12
COc1ccc(C)cc1-c1noc([C@H]2CCCO2)n1 | 2 | 5
CCn1nnc2c(NC3CCCCCCCCCCC3)ncnc21 | 12 | 16
O=C1CC(N(Cc2ccc3c(c2)OCO3)C(=S)Nc2ccccc2)C(=O)N1c1ccc(F)cc1 (stereo not drawn) | -2 | -1
CCC(CC)C(=O)Nc1ccc(-c2cccc(-c3cc(OC)ccc3OC)n2)cc1 | 13 | 12
COC(=O)c1cc([N+](=O)[O-])cc(N)c1C | 7 | 12
CCN1C(=O)N(C2Cc3ccccc3C2)C(=O)C12CCN(Cc1ccc3c(c1)CCCN3C)CC2 | 4 | 10
Cc1c(C)n2c3c(=O)[nH]c(=O)n(C)c3nc2n1CCCl | -4 | 2
Cc1cc(C)n(-c2ccc(C(=O)NC(C)C)cn2)n1 | 4 | 4
COC(=O)[C@@H](NC1CCN(c2ccc(NS(=O)(=O)N(C)C)cc2)CC1)c1ccccc1 | 2 | 6
CCn1nc(C)cc1C(=O)N1CC(=O)Nc2ccccc21 | 7 | 2
COC(=O)c1ccccc1NC(=O)Cn1cnc([N+](=O)[O-])n1 | -14 | -11
CC(NCC1(Sc2ccccc2)CCCC1)C(=O)NC(N)=O (stereo not drawn) | 3 | 4
CC1=C(C(=O)Nc2cccnc2)C(c2ccccc2Cl)n2nc(-c3ccc(N(C)C)cc3)nc2N1 (stereo not drawn) | -1 | 1
Cc1ccc(C(=O)N(CCCN2C(=O)c3cccc4cccc(c34)C2=O)c2ccc(Oc3ccccc3)cc2)cc1 | -11 | -5
O=C(c1ccccc1SCC1CCCO1)N1CCN(c2ccc(O)cc2)CC1 (stereo not drawn) | 7 | 9
COC(=O)C(C)Sc1nc2c(c(=O)n1-c1ccc(C)cc1)SCC2 (stereo not drawn) | -7 | -5
Cc1cn2c(CC(=O)O)csc2n1 | 17 | 10
O=C(NCCNC(=O)[C@H]1CCCN1C(=O)c1ccc(C(F)(F)F)cc1)c1ccc(F)cc1 | 4 | 0
CCCCCCCC(=O)N1CCN(C(=O)CCCSc2nnc(-c3ccc(C)cc3)n2-c2cccc(C)c2)CC1C (stereo not drawn) | 12 | 14
O=[N+]([O-])c1cc2c(c(COc3ccccc3Br)c1)OCOC2 | 15 | 13
COc1cccc(-c2cncc(NC(C)=O)n2)c1 | 0 | 3
CN(Cc1cccc(F)c1)C(=O)Nc1ccc(S(N)(=O)=O)cc1 | 28 | 29
Cc1cc(=O)n(-c2ccccc2)n1C | -12&-4 | -8&-3
Cc1cc(C)nc(N(C#N)CC(=O)N(c2ccccc2)C(C)C)n1 | -11 | -8
c1cc(CN2CCCn3cncc3C2)n(-c2nccs2)c1 | 7 | 6
CN(Cc1nc2ccc(F)cc2[nH]1)C(=O)C(=O)c1cccn1C | -15 | -13
COc1cc(NC(=O)C2(C)CCCN(C(C)C)C2)cc(OC)c1OC (stereo not drawn) | -1 | 1
COc1cccc(NC(=O)CCC2CCN(C(=O)c3cnsn3)CC2)c1 | -1 | 2
Oc1ccc2c(c1)CN(C1CCCc3ccccc31)CC2 (stereo not drawn) | 7 | 7
O=C(Nc1cc(F)ccc1F)N1CCN(CC(OCc2ccc(C(F)(F)F)cc2)c2ccc(Cl)cc2)CC1 (stereo not drawn) | 19 | 30
CN(Cc1ccccc1)C(=O)c1ccccc1N1CCC(N)CC1 | 6 | 5
CCc1ccc(C2C(C(=O)OCC(C)C)=C(C)NC3=C2C(=O)CC(c2ccccc2)C3)cc1 (stereo not drawn) | 7 | 1
Cc1ccc(S(=O)(=O)n2cc(/C=C/C(=O)NC(c3ccc(F)cc3)c3ccc(SCc4ccccc4)cc3)c3ccccc32)cc1 (stereo not drawn) | 10 | 23
CCN(Cc1ccncc1)S(=O)(=O)NCc1ccccc1 | 0 | 3
Cc1ccc2nc(CNc3ccccc3C(=O)NC3CC3)cn2c1 | 1 | 0
CN(Cc1ccccc1)c1nccn2ccnc12 | 1 | 4
CCOc1ccc(NC(=O)NC2CC(C)(C)NC(C)(C)C2)cc1 | -11 | -6
COCC1(C(=O)NCc2cccnc2N2CCCCCCC2)CCC1 | 2 | 3
C[C@]12CC[C@H](O)CC1=CCC1C2CC[C@]2(C)C(n3cnc4ccccc43)=CCC12 (stereo partly drawn) | 9 | 19
N#Cc1c(N)nc(N2CCCC(O)C2)c(C#N)c1C(C#N)Cc1ccc(F)cc1Cl (stereo not drawn) | 0 | -2
O=C(O)c1ccc(F)c(COc2ccc(F)cc2)c1 | -1 | 2
COc1cccc(Cc2c(C)nc(C)nc2N2CCN(C(=O)c3cccc(Br)c3)CC2)c1 | 19 | 6
O=C(CCCn1cncn1)N1CCOC(Cc2cccc3ccccc23)C1 (stereo not drawn) | -4 | 3
Cc1nc(SCc2nc3ccccc3o2)c2ccccc2n1 | 16 | 0
Cc1sc(N=Nc2c(O)[nH]c(=O)[nH]c2=O)c(C#N)c1C | -17 | -9
CN(Cc1cc(-c2ccncc2)no1)C(=O)[C@@H]1C[C@@H]2C=C[C@H]1C2 | -5 | -4
CC(=O)N(c1cccc(C(F)(F)F)c1)c1nc(C=CC(=O)NC2CCCCC2)cs1 | 13 | 10
Cc1ccc(C2(CNC(=O)c3c(F)cccc3Cl)CCOCC2)cc1 | -4 | -1
COCCN(CC(=O)N(CCc1ccc(OC)c(OC)c1)Cc1ccc(C)o1)C(=O)CCc1ccccc1 | 11 | 4
N#Cc1c(N)sc(=S)c2c1CCCC2 | 5 | 4
CN(C)S(=O)(=O)c1cccc(C(=O)n2nnc3ccccc32)c1 | 2 | 6
COC(=O)CCCCC(=O)NCC1Cc2cc(C(=O)OC)ccc2O1 (stereo not drawn) | -2 | 5
CC(C(=O)N1CCOCC1)N1C(=O)CSC1c1ccccc1F (stereo not drawn) | 32 | 27
CCOC(=O)C1CCN(C(=O)c2cc3n(n2)CCN(Cc2ccccc2OC)C3=O)CC1 | 20 | 17

(further entries)
canonical_smiles | NPYLR7 ag max-min | NPYLR7 ag
Nc1c(C=C2C=C(Br)C=CC2=O)c(=O)nc2sc(C(F)(F)F)nn12 | 0 | 0
CC(C)CCN1CCN(Cc2cccc3cccnc23)CC1CCO (stereo not drawn) | 1 | 6
Cc1c(C(=O)NCc2ccccn2)cnn1-c1ccccc1 | 11 | 8
N#CC1=C(N)SC(N)=C(C#N)C1C1CC2C=CC1C21CC1 (stereo not drawn) | -3 | 0
O=C(NCCc1nc(C2CCCCC2)cs1)c1cnccn1 | 4 | 8
CN1CCC2(CC1)CN(C(=O)CCCn1cncn1)CCCN2C | 2 | 3
O=C(/C=C/c1ccccc1)N(Cc1cccn1Cc1ccccc1Cl)C1CCCCC1 | 8 | -3
CC(c1ccccn1)N(C)Cc1ccnn1-c1ccccc1 (stereo not drawn) | -2 | -1
CCN(c1ccccc1)S(=O)(=O)c1ccc(C(=O)OC2CCCCNC2=O)cc1 (stereo not drawn) | 3 | 9
O=S(=O)(/C=C/c1ccccc1)Oc1ccc(-c2nc3ccc(Br)cn3c2NC2CCCCC2)cc1 | 6 | -1
CCc1ccc(CNC(=O)c2cncc(Br)c2)s1 | 3 | 7
CC(NC(=O)c1cc(NC(=O)CC(C)(C)C)ccc1N1CCCC1)c1ccccc1 (stereo not drawn) | 8 | 0
Cc1ccc(C(NC(=O)C2CCN(CCCc3ccccc3)CC2)c2ccccn2)cc1 (stereo not drawn) | -8 | -6
CN1CCN2CCN(C(=O)CCn3ccnc3)CC2C1 (stereo not drawn) | 1 | 1
COc1c(Br)cc(Cl)cc1NCC(=O)Nc1ccc2c(c1)CCN2C(C)=O | 11 | -3
Cc1cccc(Oc2cc(N3CCCCC3)ncn2)c1 | 4 | -8
Cc1cnn(C(C)C2CC2)c1NC(=O)c1ccc2[nH]c(C)c(C)c2c1 (stereo not drawn) | -9 | -6
COC(=O)C1=C(C)NC2=C(C(=O)CCC2)C1c1ccc(OC)c(O)c1 (stereo not drawn) | -2 | -1
Cc1nnc(SCc2ccc(Cl)cc2)[nH]c1=O | 2 | 0

Screens (PubChem BioAssay)
